From PubChem
ID4 SMM = binders of human ID4 protein, primary screen, biochemical, small molecule microarray, single point; DNA-binding protein inhibitor ID-4 (Homo sapiens), P47928; Flag-ID4 binding, fluorescence F/B; calls only; hit rate 1.2% among 31,000;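 active = spot signal over background at p below 0.07 in all four prints; compounds were printed on slides so no solution concentration is given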;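 note: a binder raises fluorescence above local background on the spot; about 2 pmol printed per array spot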
Target sequence (P47928 whole entry, looked up): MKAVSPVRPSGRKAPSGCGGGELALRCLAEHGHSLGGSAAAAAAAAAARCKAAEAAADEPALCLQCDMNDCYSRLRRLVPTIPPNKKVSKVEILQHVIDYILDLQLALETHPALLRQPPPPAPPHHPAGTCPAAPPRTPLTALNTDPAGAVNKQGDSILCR
Calls only; i = inactive. Only part of the results is shown, so the mix of outcomes need not match the whole.

mol,ID4 SMM
COc1ccc(-c2cnc3c(c2)C(=O)N([C@@H](C)CO)C[C@H](C)[C@H](CN(C)C)O3)cc1,i
CCc1ccc(NC(=O)CC2NCCNC2=O)cc1 (stereo not given),i
O=C1c2cccc3cccc(c23)C(=O)N1CCCSc1n[nH]c(-c2ccc(Cl)cc2)n1,i
CC(=O)N(C)C[C@H]1Oc2ncc(-c3cccnc3)cc2C(=O)N([C@@H](C)CO)C[C@@H]1C,i
CC(=O)N(C)C[C@H]1Oc2ncc(C3=CCCC3)cc2C(=O)N([C@@H](C)CO)C[C@H]1C,i
O=C(CSc1nc(-c2ccccc2)cc(=O)[nH]1)Nc1ccc(Cl)cc1,i
COc1ccc(CCN(C)CCc2ccc(OC)c(OC)c2)cc1OC,i
CC(C)c1cn(CC[C@H]2CC[C@@H](NC(=O)c3cccc(F)c3)[C@@H](CO)O2)nn1,i
O=S1(=O)CCC(NS(=O)(=O)c2cccc3cccnc23)C1 (stereo not given),i
COc1ccccc1-c1cnc2c(c1)C(=O)N([C@H](C)CO)C[C@H](C)[C@H](CN(C)C)O2,i
O=C(COc1ccc(S(=O)(=O)N2CCOCC2)cc1)Nc1ccccc1C(F)(F)F,i
O=C(CSc1nnc(-c2ccncc2)o1)c1ccc2c(c1)OCCO2,i
O=C(C[C@H]1C[C@H]2c3cc(NC(=O)NC4CCCC4)ccc3O[C@H]2[C@H](CO)O1)NCCN1CCCCC1,i
O=C(Cn1cnc2scc(-c3cccc([N+](=O)[O-])c3)c2c1=O)Nc1ccc(Cl)cc1,i
Cc1cccc(NC(=O)CCn2cnc3ccccc3c2=O)c1C,i
C[C@H]1CN([C@@H](C)CO)S(=O)(=O)c2ccc(-c3ccccc3)cc2O[C@H]1CN(C)Cc1ccccc1,i
COc1cccc(-c2cnc3c(c2)C(=O)N([C@@H](C)CO)C[C@@H](C)[C@@H](CN(C)Cc2ccc(C(=O)O)cc2)O3)c1,i
COc1cccc(CNC(=O)C[C@@H]2C=C[C@@H](NC(C)=O)[C@H](CO)O2)c1,i
CCn1c(SCC(=O)Nc2cc(Cl)ccc2OC)nnc1-c1ccc(Br)cc1,i
Cc1ccccc1-c1cnc2c(c1)C(=O)N([C@@H](C)CO)C[C@@H](C)[C@H](CN(C)Cc1ccncc1)O2,i
N#Cc1cc2c(nc1SCC(=O)Nc1ccccc1C(F)(F)F)CCC2,i
COc1ccc(OC)c(NC(=O)CSc2nnc(-c3ccc(C)c(Cl)c3)n2-c2ccccc2)c1,i
C[C@@H]1CN([C@@H](C)CO)C(=O)c2cc(-c3ccccc3)cnc2O[C@H]1CN(C)C(=O)c1ccccn1,i
O=C(CSc1nnnn1-c1ccccc1Cl)Nc1ccc(F)cc1,i
O=C(Nc1ccc2c(c1)OCO2)N[C@H]1C=C[C@H](CC(=O)N2CCN(c3ccccc3)CC2)O[C@@H]1CO,i
Cc1cc(NC(=O)C2CC=CCC2C(=O)O)ccc1NC(=O)c1ccccc1 (stereo not given),i
C[C@@H]1CN([C@H](C)CO)C(=O)CCCn2cc(nn2)CO[C@@H]1CN(C)Cc1ccccc1C(F)(F)F,i
CCOC(=O)c1sc2ncn(CC(=O)Nc3ccccc3Cl)c(=O)c2c1C,i
COc1ccc(NC(=O)Nc2ccc3c(c2)[C@H]2C[C@H](CC(=O)N4CCN(C)CC4)O[C@H](CO)[C@H]2O3)cc1,i
CCCC#Cc1cnc2c(c1)C(=O)N([C@@H](C)CO)C[C@H](C)[C@@H](CN(C)C(=O)C1CC1)O2,i
COC(=O)CNC(=O)c1cn(-c2ccccc2)nc1-c1ccc(OC)cc1,i
COC(=O)[C@@]1(C)CCCC2(C)c3ccc(C(C)C)cc3CCC21 (stereo not given in full),i
CN(C(=S)Nc1ccccc1)C1CCC(C2OCCO2)CC1O (stereo not given),i
O=C(C[C@@H]1C=C[C@@H](NS(=O)(=O)c2ccc(F)cc2)[C@H](CO)O1)NC1CCCCC1,i
Cc1c(CCC(=O)O)c(=O)oc2c(C)c(OCc3cccc4ccccc34)ccc12,i
C[C@@H]1CN([C@@H](C)CO)C(=O)c2cc(C#CC3(O)CCCC3)cnc2O[C@H]1CN(C)Cc1ccccc1,i
Cc1ccc(C(=O)Nc2ccc(OCC(=O)O)cc2)cc1,i
COc1ccc(-c2nnc(SCC(=O)c3ccc(Cl)cc3)n2-c2ccc(C)cc2)cc1OC,i
CC(=O)N[C@H]1CC[C@H](CCNC(=O)C2CCCC2)O[C@H]1CO,i
COCC(=O)N[C@@H]1C=C[C@H](CC(=O)N2CCCCC2)O[C@H]1CO,i

Rewritten as labelled records: 4 of the compounds above.
smiles: N#Cc1cc2c(nc1SCC(=O)Nc1ccccc1C(F)(F)F)CCC2
- ID4 SMM = i

smiles: COc1ccc(OC)c(NC(=O)CSc2nnc(-c3ccc(C)c(Cl)c3)n2-c2ccccc2)c1
- ID4 SMM = i

smiles: C[C@@H]1CN([C@@H](C)CO)C(=O)c2cc(-c3ccccc3)cnc2O[C@H]1CN(C)C(=O)c1ccccn1
- ID4 SMM = i

smiles: O=C(CSc1nnnn1-c1ccccc1Cl)Nc1ccc(F)cc1
- ID4 SMM = i

More entries follow:
mol,ID4 SMM
COc1cc2c(cc1NC(=O)COc1ccc(Br)cc1Cl)oc1ccccc12,i
CO[C@@H]1CN(C)C(=O)c2ccc(NC(=O)C3CC3)cc2OC[C@@H](C)NC[C@H]1C,i
C[C@H](CO)N1C[C@H](C)[C@H](CN(C)Cc2ccccc2C(F)(F)F)OCc2cn(nn2)CCCC1=O,i
COc1cc(C)c(Br)cc1S(=O)(=O)NCCN1CCOCC1,i
CC(C)NC(=O)N[C@H]1CC[C@H](CC(=O)NCCCN(C)C)O[C@H]1CO,i
CS(=O)(=O)N(CC(=O)NC1CC1)c1ccc(Cl)c(C(F)(F)F)c1,i
CS(=O)(=O)N(CC(=O)Nc1cccc([N+](=O)[O-])c1)c1cc(Cl)c(Cl)cc1Cl,i
CC(=O)N(C)C[C@@H]1Oc2ncc(-c3ccc(F)cc3)cc2C(=O)N([C@@H](C)CO)C[C@H]1C,i
CC(C)c1ccc(S(=O)(=O)Nc2ccc(O)c(Sc3ncn[nH]3)c2)cc1,i
Cc1noc(C)c1NC(=O)N(C)C[C@H]1Oc2cc(C#CCN(C)C)ccc2S(=O)(=O)N([C@@H](C)CO)C[C@@H]1C,i
COc1ccc(C)cc1S(=O)(=O)N(C)CC(=O)N1CCN(c2ccccc2)CC1,i
Cc1cc(C)c(OCC(=O)Nc2ccc3oc(-c4cncc(Br)c4)nc3c2)c(Cl)c1,i
C=CCC(c1cc(Cl)ccc1N)S(=O)(=O)c1ccc(C)cc1 (stereo not given),i
CN(C)c1ccc2c(c1)[C@H]1C[C@H](CC(=O)NCc3ccccc3F)O[C@H](CO)[C@H]1O2,i
COc1cccc(C#Cc2cnc3c(c2)C(=O)N([C@@H](C)CO)C[C@H](C)[C@@H](CN(C)C)O3)c1,i
O=C(Nc1ccc(I)cc1C(=O)NCCN1CCOCC1)c1ccccc1Cl,i
O=C(CSc1nnc(-c2ccccc2)n1-c1ccccc1)N1CCOCC1,i
N#Cc1c(NC(=O)C2CC(c3ccccc3O)=NO2)sc2c1CCCC2 (stereo not given),i
C[C@@H]1CN([C@H](C)CO)C(=O)c2cc(-c3cncnc3)cnc2O[C@@H]1CN(C)C(=O)c1ccccc1F,i
CCCN(Cc1cc2cccc(C)c2[nH]c1=O)S(=O)(=O)c1ccccc1,i
COc1cc(/C=C/C=O)cc(OC)c1O,i
O=C(CN(C1CCCCC1)S(=O)(=O)c1ccc(Cl)cc1)Nc1ccccc1F,i
CN1C2CCC1CC(OC(=O)c1c[nH]c3ccccc13)C2 (stereo not given),i
C[C@H]1CN([C@@H](C)CO)C(=O)c2cc(-c3ccc(F)cc3)cnc2O[C@H]1CN(C)CC1CCCCC1,i
Cn1c(SCC(=O)Nc2ccc(Br)c(Cl)c2)nnc1-c1ccccc1F,i
Cc1cc(=O)oc2cc(OC(C)C(=O)Nc3ccc(N4CCOCC4)cc3)ccc12 (stereo not given),i
Cc1ccc(NC(=O)CSc2nnc(-c3ccncc3)n2-c2ccc(Cl)cc2)cc1F,i
O=C(CC1NCCNC1=O)Nc1cccc(Cl)c1 (stereo not given),i
C[C@H](CO)N1C[C@H](C)[C@H](CN(C)C)Oc2ccc(NC(=O)Cc3cn(C)c4ccccc34)cc2C1=O,i
O=C(CCN1C(=O)C2C3C=CC(C4CC34)C2C1=O)Nc1ccc(Br)cc1Cl (stereo not given),i
C[C@@H]1CN([C@@H](C)CO)S(=O)(=O)c2ccc(C#Cc3cccnc3)cc2O[C@H]1CN(C)CC1CCOCC1,i
CNC[C@@H]1Oc2cc(C#Cc3ccccc3)ccc2S(=O)(=O)N([C@@H](C)CO)C[C@H]1C,i
COc1ccc(-c2nc3ccccc3s2)cc1NC(=O)COc1ccc(C(C)C)cc1,i
CCC(Sc1nnc2sc3ccccc3n12)C(=O)O (stereo not given),i
C[C@@H]1CN([C@H](C)CO)S(=O)(=O)c2ccc(C#CC(C)(C)O)cc2O[C@@H]1CN(C)C(=O)CC1CC1,i
COc1cccc(S(=O)(=O)Nc2ccc3c(c2)[C@H]2C[C@@H](CC(=O)N(C)C)O[C@H](CO)[C@H]2O3)c1,i
COc1ccc(-c2cnc3c(c2)C(=O)N([C@H](C)CO)C[C@H](C)[C@H](CN(C)Cc2cccnc2)O3)cc1,i
COc1ccc(C#Cc2cnc3c(c2)C(=O)N([C@@H](C)CO)C[C@@H](C)[C@H](CN(C)CC2CCOCC2)O3)cc1,i
C[C@H](CO)N1C[C@H](C)[C@@H](CN(C)C(=O)CN(C)C)Oc2ncc(-c3ccccc3F)cc2C1=O,i
O=C(C[C@H]1C=C[C@@H](NS(=O)(=O)c2ccc(F)cc2)[C@H](CO)O1)NCc1ccncn1,i
O=C(C[C@H]1CC[C@H](NC(=O)CC2CC2)[C@@H](CO)O1)NCc1ccc(-c2ccccc2)cc1,i
CCC(=O)N[C@H]1CC[C@@H](CCn2cc(C3CC3)nn2)O[C@H]1CO,i
COc1c(O)cc2c(-c3ccccc3)cc(=O)oc2c1OC,i
COc1ccccc1-n1c(SCC(=O)N2CCOCC2)nc(O)cc1=O,i
COc1ccc(CN(C)CCc2ccccn2)c(OC)c1OC,i
COc1ccc(S(=O)(=O)NCc2cccnc2)c(Cl)c1Cl,i
Cn1c(SCC(=O)Nc2cccc(Br)c2)nnc1-c1ccccc1Cl,i
O=C(O)CCc1nn2c3ccccc3nc2n(Cc2ccccc2)c1=O,i
CCn1c(SCC(=O)Nc2ccc(Cl)cc2Cl)nnc1-c1ccccc1,i
COc1ccc(OCC(=O)Nc2cccc(Cl)c2N2CCOCC2)cc1,i
Cc1ccc(C)c(S(=O)(=O)/N=C(\c2ccccc2)N(C)C)c1,i
C[C@@H]1O[C@@H](O[C@H]2[C@@H]3C=CO[C@@H](O[C@@H]4O[C@H](CO)[C@@H](O)[C@H](O)[C@H]4O)[C@@H]3[C@@]3(CO)O[C@@H]23)[C@H](OC(=O)/C=C/c2ccccc2)[C@H](O)[C@H]1O,i
Cc1ccc(-c2nc3ccc(NCc4cccs4)cc3o2)cc1,i
COc1ccc(OC)c(NC(=O)COc2c(C)cc(Cl)cc2Cl)c1,i
CCC(=O)c1c(OCC(N)=O)ccc2c(C)cc(=O)oc12,i
COc1cccc(C#Cc2ccc3c(c2)O[C@@H](CN(C)C)[C@@H](C)CN([C@H](C)CO)S3(=O)=O)c1,i
Cn1c(SCC(=O)Nc2ccccc2C(F)(F)F)nnc1-c1ccc(NC(=O)c2ccc(F)cc2)cc1,i
CC(C)CC#Cc1cnc2c(c1)C(=O)N([C@@H](C)CO)C[C@@H](C)[C@@H](CN(C)C(=O)CN1CCOCC1)O2,i
COc1ccccc1NC(=O)CNC(=O)c1ccc(Cl)cc1Cl,i
COc1cc(OC)cc(C(=O)N(Cc2nc(-c3cccc(C)c3)no2)C(C)C)c1,i

Exported with each value named: part of the list above
> O=C(C[C@H]1C=C[C@@H](NS(=O)(=O)c2ccc(F)cc2)[C@H](CO)O1)NCc1ccncn1
- ID4 SMM = i
> O=C(C[C@H]1CC[C@H](NC(=O)CC2CC2)[C@@H](CO)O1)NCc1ccc(-c2ccccc2)cc1
- ID4 SMM = i
> CCC(=O)N[C@H]1CC[C@@H](CCn2cc(C3CC3)nn2)O[C@H]1CO
- ID4 SMM = i

(list continues)
mol,ID4 SMM
Cc1ccc(C)c(N(CC(=O)Nc2ccc(I)cc2)S(C)(=O)=O)c1,i
CCOC(=O)c1c(CSc2nc(C)cc(C)n2)nc2c3ccccc3ccn12,i
CCCC#Cc1cnc2c(c1)C(=O)N([C@H](C)CO)C[C@@H](C)[C@H](CN(C)C(=O)C1CCC1)O2,i
COc1cc2c(cc1NC(=O)CSc1ccccn1)oc1ccccc12,i
CCCc1cn(CC[C@@H]2CC[C@H](NC(=O)C3CCCC3)[C@H](CO)O2)nn1,i
COc1c(O)cc2oc(-c3ccc(O[C@@H]4O[C@H](CO)[C@@H](O)[C@H](O)[C@H]4O)cc3)cc(=O)c2c1O,i
COCCNC(=O)C[C@H]1C[C@@H]2c3cc(N(C)C)ccc3O[C@@H]2[C@H](CO)O1,i
C/C=C/c1ccc2c(c1)O[C@H](CN(C)Cc1ccccc1)[C@H](C)CN([C@H](C)CO)S2(=O)=O,i
COc1ccc(C)cc1N(CC(=O)Nc1ccc(Br)c(C)c1)S(C)(=O)=O,i
CCc1ccc(NC(=O)CSc2nnc(C)n2-c2ccccc2)cc1,i
